# LANA-nucl inh – LANA-nucleosome interaction inhibition | hit rate 0.3% among 51,000 | z-score (no concentration beside the values) | FITC-LANA1-23 / chicken nucleosome fluorescence polarization; hits give low values;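 active means both repeat wells score below -2 in polarization z-score versus plate sample wells, excluding overly bright wells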;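 further: 100 nL library stock added to about 30 µL; numbers are from one replicate; some results filed as inactive read as strong as hits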
#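 Test system: purified chicken nucleosomes with FITC-labelled LANA N-terminal peptide (1-23); Input: 240 nM purified chicken nucleosomes (480 nM peptide binding sites), final; Medium: TEN-BT buffer, pH 7.5; Timing: 10–45 min, room temperature; Technique: fluorescence polarization, 480 nm excitation, 535 nm parallel and perpendicular emission; Replication: duplicates.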
# BasE inh – inhibitors of Acinetobacter baumannii siderophore enzyme BasE; purified BasE, fluorescence polarization binding displacement; AID 485350; inhibition, % (concentration not given with the values); hit rate 0.1% among 84,000;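 active means both replicates above 25% with normal brightness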;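 further: 0% = negative plate control signal and 100% = positive plate control signal; stock transfer was 100 nL into about 30 µL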
# * = called active by the depositor; / = not tested or not shown. The list is partial; the hit share may differ from the screen's.
# Under each structure: LANA-nucl inh | BasE inh
> Cc1cc(Sc2nnc3c(n2)[nH]c2ccccc23)n2c(nc3ccccc32)c1C#N
→ / | 1.4
> COc1ccc(Nc2ncnc3c2nnn3Cc2ccccc2Cl)c(OC)c1
→ / | 1.9
> Cc1cccc(CSc2ncn[nH]2)c1
→ -0.26 | /
> CCC(Nc1ccc(Br)cc1)C(=O)N/N=C/c1cccnc1 (configuration not stated)
→ -0.074 | -2.1
> CCOC(=O)c1nc(NC(C)C)c2ccccc2n1
→ -0.1 | -1.3
> C=CCn1c(COc2ccccc2F)nnc1SC1CCOC1=O (configuration not stated)
→ / | 1.2
> CC(NC(=O)C1COc2ccccc2O1)C(=O)O (configuration not stated)
→ -0.95 | 1.1
> COc1ccccc1/C(N)=N/O
→ / | -0.8
> Cc1ccccc1Nc1nc(N)nc(COc2ccc(F)c(Cl)c2)n1
→ / | 0.8
> CCOC(=O)c1cc(-c2ccccc2)n(-c2ccccc2C)n1
→ / | 1.7
> FC(F)Oc1ccccc1C=NCc1cn2ccccc2n1
→ / | 2.1
> CCOC(=O)c1sc(N)c(C#N)c1COC(=O)CSc1nnc(-c2ccco2)o1
→ / | -53
> N#CCn1c(COC(=O)Cc2ccc3c(c2)OCCO3)nc2ccccc2c1=O
→ / | -2.6
> CSc1nnc(SC)n1CCNC(=O)Nc1cccc(Cl)c1
→ / | 3.1
> CCOC(=O)C1CCN(C(=O)COC(=O)/C=C/c2ccccc2)CC1
→ / | -0.2
> Cc1ccc(NS(=O)(=O)c2ccc3c(c2)oc(=O)n3C(=O)Oc2ccccc2)cc1
→ / | 3.9
> CC(O)c1cc(-c2ccc(Cl)cc2Cl)no1 (configuration not stated)
→ / | 0.2
> CCSc1nc(O)c(C(C)CC)c(=O)[nH]1 (configuration not stated)
→ / | -1.2
> Cn1nnnc1SCC(=O)OC1CCCCC1
→ -0.22 | -1.1
> Cc1c(S(=O)(=O)c2ccc(Cl)cc2)csc1C(=O)N(C)c1nnc(C(F)(F)F)s1
→ / | 2.4
> CCOc1ccc(NC(=O)CN2C(=O)C(CC)SC(CC)C2=O)cc1 (configuration not stated)
→ -0.74 | 1.3
> COc1ccc(C2NC(=O)NC3=C2C(=O)CC(C)(C)C3)cc1OC (configuration not stated)
→ / | 18
> Cc1cc2nn(CN3CCOCC3)c(=S)n2c2ccccc12
→ / | 1.8
> CCOC(=O)/C(C#N)=C1\CC2CCC1(C)C2(C)C (configuration not stated)
→ 0.79 | -4.7
> CCCOC(=O)c1sc2nc3c(c(-c4cccs4)c2c1N)CCC3
→ -0.73 | 0.7
> O=C(c1ccc(Cl)cc1)N(c1ccccn1)c1ccccn1
→ / | 1.9
> Cc1ccccc1OCC(=O)N(Cc1ccco1)Cc1ccco1
→ 0.37 | 2.6
> N#Cc1ccc(CNC(=O)Nc2ccccc2)cc1
→ 0.19 | 0.3
> Cc1ccc(NC(=O)CSCc2c(C)noc2C)cc1C
→ / | 4.0
> COC(=O)c1cc(Cl)nc2ccccc12
→ 0.095 | 0.3
> S=C(NCc1ccco1)N1CCC2(CC1)OCCO2
→ -0.042 | -1.4
> Cc1cc(C(=O)OCC(=O)c2ccc3[nH]c(=O)[nH]c3c2)c2ccccc2n1
→ / | -0.1
> COc1cc(/C=C2/N=C(C)OC2=O)cc(OC)c1OC
→ / | -0.6
> CC(C)Cn1c(=O)c2ccccc2c2ccccc2c1=O
→ -0.85 | -0.8
> Cc1oc(C(=O)O)cc1CSc1nc2ccccc2[nH]1
→ 2.3 | 1.0
> CCn1c(N)c(C(=O)NC)sc1=S
→ -0.3 | -0.2
> Cc1ccc(C(=O)c2ccccc2C(=O)O)c(C)c1
→ -0.2 | -0.1
> CC1(C)OC(=O)C(=CNc2ccccc2)C(=O)O1
→ / | -0.5
> CCC1(O)CC(C(=O)OC)=NN1C(=O)c1ccccc1 (configuration not stated)
→ / | 1.4
> O=C(O)Cn1c(=O)c(F)cn(C2CCCO2)c1=O (configuration not stated)
→ / | 0.9
> N#Cc1ccccc1CNCc1cccs1
→ -2.1* | -0.1
> O=C1c2ccccc2C(=O)N1CN1CCSCC1
→ -0.058 | 2.4
> O=C(N/N=C/c1cn(-c2ccccc2)nc1-c1cccs1)c1cccs1
→ 0.12 | 0.0
> CCOc1ccccc1NC(=O)CS
→ 1.1 | -0.2
> O=C1CN(C(=O)CCC(=O)c2ccc(Br)cc2)CCN1
→ / | -5.5
> Cc1nn(-c2ccccc2)c(N2CCCC2)c1/C=N/N=c1\sc2ccccc2n1C
→ / | 1.7
> CCc1ccc(NC(=O)Nc2nnc(N3CCCCC3)s2)cc1
→ 0.89 | 0.2
> Nc1ccc2oc3c(c2c1)CCCC3
→ 2 | -4.6
> CCC12CN3CC(CC)(CN(C1)C3c1cccc(N)c1)C2=O (configuration not stated)
→ 0.47 | -0.6
> CC12C(=O)N(c3ccc(I)cc3)C(=O)C1C1C=CC2C1 (configuration not stated)
→ -1.2 | 1.5
> O=C(N/N=C\c1cccnc1)c1n[nH]c2c1CCCC2
→ -0.14 | -0.4
> O=C1C2CC=CCC2C(=O)N1CCOc1cccc(Br)c1 (configuration not stated)
→ / | 1.2
> Cc1ccccc1Nc1nc(N)nc(COC(=O)CCCN=C2NS(=O)(=O)c3ccccc32)n1
→ / | -1.1
> Cc1cc(C)n(CC(=O)NCc2ccccc2)c(=O)n1
→ 0.055 | -2.8
> O=C(c1ccc(Cl)s1)N1CCc2ccccc2C1
→ -0.76 | 5.3
> O=C1COc2ccc(C(=O)NCc3ccc4c(c3)OCO4)cc2N1
→ 0.33 | -1.4
> O=C(Cn1cnc2ccccc2c1=O)N1CCCCCC1
→ 2 | -3.4
> CCSc1nnc(Cc2ccccc2)o1
→ 0.064 | 3.8
> Cc1ccc(CNC(=O)CCS(=O)(=O)c2ccc3c(c2)NC(=O)CO3)cc1
→ -1.7 | -0.3
> CC1CCN(S(=O)(=O)c2ccc(NC(=O)Nc3ccccc3)cc2)CC1
→ -0.38 | -3.0

# (continued)
# Under each structure: LANA-nucl inh | BasE inh
> Cc1nc(-c2ccc3c(c2)OCCO3)cs1
→ / | 0.6
> Cc1ccc(S(=O)(=O)n2nccc2-c2c(C)nc3ccccn23)cc1
→ / | -0.2
> O=C1N/C(=N/N=C\c2[nH]ncc2Br)SC1c1ccccc1 (configuration not stated)
→ 0.82 | 27*
> C=CCN(CC=C)C(=O)c1ccc(N2C(=O)c3ccccc3C2=O)cc1
→ 0.029 | 2.0
> O=S1(=O)CC=C(Sc2ccccc2)C1
→ / | 1.4
> Cc1ccccc1N1C(=O)NC(=O)/C(=C\c2cn(CC(=O)N3CCOCC3)c3ccccc23)C1=O
→ / | 3.6
> COCCN1C(=O)c2ccccc2C1=O
→ 1.9 | 0.0
> CCc1cccc(NS(=O)(=O)c2ccc3c(c2)N(C)CCO3)c1
→ 0.88 | 0.3
> O=C(Cn1nnc(-c2ccc(CN3CCOCC3)cc2)n1)Nc1ccccc1F
→ 0.58 | -0.7
> COC(=O)C1C(=O)C2=C(CC1C)Nc1ccccc1NC2c1ccc(C)cc1 (configuration not stated)
→ 0.24 | 1.3
> CN(CCOc1ccc(Cl)cc1)Cn1nnc2ccccc2c1=O
→ / | 0.9
> Clc1ccc(CCN2COc3cc4c(cc3C2)OCO4)c(Cl)c1
→ 1.3 | -21
> O=C(OCC1OC(n2ccc(=O)[nH]c2=O)C(O)C1OC(=O)c1ccccc1)c1ccccc1 (configuration not stated)
→ / | 1.2
> CC(C)N(Cc1ccccc1)C(=O)Cn1c(=O)oc2ccccc21
→ / | -4.2
> O=c1c(-c2cccs2)nc2ccccc2n1C1CCCCC1
→ / | -0.9
> CCCCN1C(=O)c2cccc3c(Cl)ccc1c23
→ -0.052 | -1.8
> Cc1cccn2c(=O)c3cc(C(=O)NCCCN4CCCC4=O)n(C)c3nc12
→ / | 1.6
> CC1CC(C)CN(C(=O)CCCc2nnc3n(C)c(=O)c4sccc4n23)C1 (configuration not stated)
→ 0.84 | 0.6
> O=C(c1csc(-c2ccccc2)n1)N(Cc1ccccn1)Cc1ccccn1
→ -2* | /
> O=C(NCc1ccc(-n2cccc2)cc1)c1cccs1
→ 0.55 | 1.5
> CN1CCN(C(=O)CCc2nc3ccccc3n2-c2ccccc2)CC1
→ / | -4.7
> CCn1cnc2cc(NCc3cccc(Br)c3)ccc21
→ 0.51 | 2.3
> COc1ccc(Cc2nnc(SCC(=O)Nc3ccc(S(=O)(=O)N4CCCCCC4)cc3)o2)cc1
→ 0.57 | -1.6
> COc1ccc(CNC(=O)C2CCCN2C(=O)NCc2ccccc2)cc1 (configuration not stated)
→ -1.4 | 0.3
> CN(C)/C=N/NC(=O)c1cc(COc2cc(Cl)cc(Cl)c2)on1
→ 2.5 | -3.5
> O=C(NCCN1CCN(C(=O)c2cccc(C(F)(F)F)c2)CC1)c1cccc(C(F)(F)F)c1
→ 0.17 | /
> O=C1CN(C(=O)Cc2ccsc2)c2ccccc2N1
→ / | 18
> O=C(CSc1nc2[nH]ncc2c(=O)n1-c1ccccc1)c1ccc2c(c1)OCCO2
→ 0.54 | -2.9
> Cc1ccnc(SCC(=O)c2ccc(Br)cc2)n1
→ -0.93 | 44*
> N#Cc1cn(CCCOc2ccccc2Cl)c2ccccc12
→ 0.28 | 3.0
> Fc1ccccc1Cn1nnc2ccccc21
→ 0.67 | 5.3
> CCn1c(Nc2ccccc2Cl)nc2ccccc21
→ 0.044 | -0.5
> NNC(=O)c1cn2cc(C(F)(F)F)cc(Cl)c2n1
→ -0.95 | 2.1
> COc1ccc(N2COc3cc4c(cc3C2)OCO4)cc1
→ 0.71 | -1.6
> CC(=O)Nc1ccc(S(=O)(=O)NC2CCCCC2C)cc1 (configuration not stated)
→ -0.32 | -0.9
> O=C(O)CCNS(=O)(=O)c1ccccc1C(F)(F)F
→ / | 0.4
> COc1ccc(-c2cc3c(=O)n(CC(=O)N(C)Cc4ccccc4)nc(C)n3n2)cc1
→ -0.64 | 2.4
> CCCn1c(C)cc(/C=C(\C#N)C(N)=S)c1C
→ / | 3.0
> CCN(CC)C(=O)c1sc(NC(=S)NCCn2cc(Br)cn2)c(C(=O)OC)c1C
→ 0.24 | 1.7
> N#Cc1cnn2c(-c3ccc(Cl)c(Cl)c3)ccnc12
→ 0.098 | /
> O=C(NC1CCCCC1)NC1(C(=O)N2CCN3CCCC3C2)CCCCC1 (configuration not stated)
→ -0.24 | -3.4
> CCOc1ccc(-c2nc(CNCCN3CCOCC3)cs2)cc1OC
→ / | 1.9
> O=C(CSc1nc2cc(Cl)ccc2c(=O)n1Cc1ccco1)c1ccc(Cl)s1
→ / | -1.8
> c1cncc(-c2nn[nH]n2)c1
→ 0.11 | 5.2
> Cc1cccc(NC(=O)c2cccc(N3C(=O)CCC3=O)c2)c1
→ -0.31 | -1.1
> COCCNC(=O)c1ccc(NC(=O)c2cccc(OC)c2)cc1
→ 0.32 | -0.5
> C/C(=N\NC(N)=O)C1(C)N(O)C(C)(C)C(c2ccco2)=[N+]1[O-] (configuration not stated)
→ / | 1.4
> O=C(Nc1cc(=O)c2ccccc2o1)OCc1ccccc1
→ / | 1.3
> CCCCNC(=O)c1ccc2c(c1)NC(=O)CN2C
→ -0.068 | 0.1
> Cc1ccc(OCc2nc(SCC(=O)c3ccc4c(c3)OCO4)n[nH]2)cc1
→ / | 0.4
> CCC1CCCCN1C(=O)c1cn(C)c(=O)c2cc(OC)c(OC)cc12 (configuration not stated)
→ -0.24 | 2.0
> C[C@H](NC(=O)Cc1cccc2ccccc12)C(=O)N1CCOCC1
→ / | -1.1
> CCCNC(=O)c1ccc(-c2ccccc2)s1
→ 0.3 | -2.0
> CC1(C)C2CC=C(/C=N/NC(=O)c3cccnc3)C1C2 (configuration not stated)
→ / | -3.6
> Cc1oc(C(C)(C)C)cc1C(=O)N1CCN(c2ncccc2C(F)(F)F)CC1
→ / | 1.0
> N#CC(C#N)=c1s/c(=C\c2ccc(-c3ccccc3Cl)o2)c(=O)n1-c1ccccc1
→ / | -3.7
> COc1ccc(-n2cc(C(=O)Nc3cccc(SC)c3)nn2)cc1
→ 0.23 | 3.1
> CSc1nc(/N=C/N(C)C)n(-c2ccccc2)n1
→ / | -2.8
> Cc1cc(NC(=O)COc2ccccc2)no1
→ / | 0.7
> Cc1c(C(=O)O)sc2nc3n(c(=O)c12)CCC(C)CC3 (configuration not stated)
→ -0.23 | 0.5

# (more compounds)
# Under each structure: LANA-nucl inh | BasE inh
> COC(=O)c1c(NC(C)=O)sc2c1CCS2
→ 0.11 | 0.6
> CC(C)NC(=O)C1CCN(C(=O)NCc2ccccc2)CC1
→ -0.58 | 0.4
> O=C(Nc1cccc(F)c1)N1C2CCC1CC(O)(c1cccnc1)C2 (configuration not stated)
→ -0.29 | 2.0
> C=CCNC(=O)CN1CCN(S(=O)(=O)c2cc(C)ccc2C)CC1
→ / | 1.5
> N#CC1=C(SCC(=O)N2CCc3ccccc32)NC2=C(C(=O)CCC2)C1c1cccnc1 (configuration not stated)
→ / | 1.8
> CN(C(=O)COc1ccc(Oc2ccccc2)cc1)C1CCS(=O)(=O)C1 (configuration not stated)
→ / | 2.4
> O=C(c1ccco1)N1CCN(C(=O)C2c3ccccc3C(=O)N3CCc4ccccc4C23)CC1 (configuration not stated)
→ -0.88 | -1.6

# An excerpt from above in order of SMILES length, falling:
# Under each structure: LANA-nucl inh | BasE inh
> N#CC1=C(SCC(=O)N2CCc3ccccc32)NC2=C(C(=O)CCC2)C1c1cccnc1 (configuration not stated)
→ / | 1.8
> CN(C(=O)COc1ccc(Oc2ccccc2)cc1)C1CCS(=O)(=O)C1 (configuration not stated)
→ / | 2.4
> C=CCNC(=O)CN1CCN(S(=O)(=O)c2cc(C)ccc2C)CC1
→ / | 1.5
> Cc1c(C(=O)O)sc2nc3n(c(=O)c12)CCC(C)CC3 (configuration not stated)
→ -0.23 | 0.5
> COC(=O)c1c(NC(C)=O)sc2c1CCS2
→ 0.11 | 0.6

# Compound activity (PubChem BioAssay)
